# RN4220 kill: growth inhibition of S. aureus RN4220, primary screen, OD600; 16 h; inhibition, % (no concentration beside the values); 330,000 tested, 0.33% active;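 active = z-score of -3 or lower and OD600 up to 0.18 on both plates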;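 note: plate controls were untreated cells for no effect and reference antibiotic for full effect; stock transfer was 100 nL into about 80 µL; one replicate is shown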
# Bead autofluor: flagged as autofluorescent in microsphere protease counterscreen; compound autofluorescence counterscreen, microsphere flow cytometry; stronger effect = higher value; fluorescence intensity (test concentration not listed); 360,000 tested, 3.1% active; AID 624483;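 active = at least 3 SD above the mean of all compounds, about 16000 in these data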;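 note: 100 nL of 1 mM stock went into each well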
# BJeLR lethal: MLPCN primary cell-based screen for lethality selective to Ras in HRASV12 cells | BJeLR (HRASV12) viability, CellTiter-Glo ATP luminescence, 48 h; reference of the scale not given here | inhibition, % (test concentration not listed) | 300,000 tested, 0.17% active | AID 1554, 2009;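 active = replicate mean above 50%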;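 note: 50 nL library stock added to about 25 µL; numbers are from one replicate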
# Mtb hypoxia inh: PubChem AID 1159583; 300,000 tested, 0.1% active; fluorescence inhibition, % (concentration not given with the values); M. tuberculosis hypoxia-regulated fluorescent reporter, fluorescence;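 active = 35 to 45% if threefold the growth effect, above 45% if 1.5-fold the growth effect; inactive = the rest, general growth blockers included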;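 note: wells of about 50 µL received 100 nL stock; 0% = vehicle wells and 100% = reference inhibitor wells; whole bacteria with a GFP reporter of the hypoxia response; strong numbers were not always called active; many hits fall short of the cut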
# ugtP null kill: growth inhibition of ugtP-null S. aureus, primary screen, RN4220 ugtP deletion, OD600. growth inhibition, % (no concentration beside the values). 330,000 tested, 0.54% active. 16 h; some inactives read as strong as hits;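 active = z-score under -3 and OD600 up to 0.15 on both plates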;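 note: plate controls were untreated wells for no effect and antibiotic for full effect; wells of about 80 µL received 100 nL stock; the first replicate is given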
# PrP 5UTR inh: inhibition of PrP 5' UTR reporter expression. cell-based PrP 5' UTR mRNA reporter, plate reader. inhibition, % (concentration not given with the values). 340,000 tested, 0.35% active. AID 488862, 2010;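 active = every replicate at 50% or more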;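 note: 0 = median of the neutral control wells; tested in H4 reporter cells; numbers are from one replicate; inactives centre near -14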
# Mtb hypoxia inh growth: second read-out of Mtb hypoxia inh, no call of its own (marks repeat the call); growth inhibition, %; measured here: M. tuberculosis growth (absorbance);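 0% = vehicle and 100% = reference antibiotic; read after six days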
# * = called active by the depositor; x = not tested or not shown.
1. CSCC[C@H](NC(=O)N1CCn2c1nc1ccccc12)C(=O)N[C@@H](C(=O)O)c1ccccc1
2. Cc1cc(C)c(C(=O)Nc2ccc(S(=O)(=O)Nc3ccccn3)cc2)c(C)c1
3. Cc1c(C)n(CC(O)CN2CCCCCC2)c2ccccc12 (stereo not drawn)
4. O=C(NN1C(=O)C2C3c4ccccc4C(c4ccccc43)C2C1=O)C1CC1 (stereo not drawn)
5. CC1(c2ccccc2)CC(C)(C)n2c(O)c(C3=NC(=S)NC3=O)c3cccc1c32 (stereo not drawn)
6. N/C(=N\OC(=O)CSc1ccccc1)c1cccc([N+](=O)[O-])c1

Compound	1	2	3	4	5	6
RN4220 kill	7.1	4.8	-1.6	6.9	-6.3	x
Bead autofluor	4028	3353	5557	3487	3861	2652
BJeLR lethal	0	1	2	-2	6	-3
Mtb hypoxia inh	x	9	10	-1	0	x
Mtb hypoxia inh growth	x	13	9	-2	-10	x
ugtP null kill	-5	4	6	6	17	x
PrP 5UTR inh	48	-11	-26	-65	-20	-28

7. O=C(/C=C/c1ccc([N+](=O)[O-])o1)NNC(=O)c1ccc(F)cc1
8. O=C(Cc1ccccc1)N/N=C/c1cc(Br)c(Br)o1
9. CC(NC(=O)COC(=O)Cc1ccc(Cl)cc1)c1ccccc1 (stereo not drawn)
10. CC1CC1C(=O)Nc1nc2ccc(S(C)(=O)=O)cc2s1 (stereo not drawn)
11. CSc1ncccc1C(=O)Nc1ccc(S(=O)(=O)NC2=NCCCCC2)cc1
12. C[C@H]1CCC[C@H](O)CCCCCc2cc(O)cc(O)c2C(=O)O1

Compound	7	8	9	10	11	12
RN4220 kill	100*	x	1.6	4.4	3.8	x
Bead autofluor	5193	16918*	4073	3122	4616	6177
BJeLR lethal	60*	1	x	-7	6	10
Mtb hypoxia inh	x	x	-3	4	13	x
Mtb hypoxia inh growth	x	x	-4	0	1	x
ugtP null kill	99*	x	-4	0	4	x
PrP 5UTR inh	-13	-14	-10	5	-15	-2

13. Cc1ccc(N2CC(C(=O)Nc3ccc(N(C)C)cc3)CC2=O)cc1C (stereo not drawn)
14. COc1ccccc1CC(Cc1nc2ccccc2[nH]1)c1nc2ccccc2[nH]1 (stereo not drawn)
15. O=C(Oc1ccc([N+](=O)[O-])cc1)C1CC(=O)N(c2ccc3c(c2)OCCO3)C1 (stereo not drawn)
16. Cc1cc(S(=O)(=O)N2CCOCC2)ccc1OCC(=O)Nc1ccc(F)cc1
17. Cn1cc(CN2CCCC(CO)(Cc3cccc(Cl)c3)C2)cn1 (stereo not drawn)
18. COc1ccccc1OCC(=O)Nc1ccc(S(=O)(=O)N(C)c2ccccc2)cc1

Compound	13	14	15	16	17	18
RN4220 kill	-0.4	-3.9	6.2	-0.5	3.8	7.7
Bead autofluor	19991*	4664	3040	4012	5489	8433
BJeLR lethal	-3	13	x	4	-5	0
Mtb hypoxia inh	-1	-10	8	3	2	9
Mtb hypoxia inh growth	11	-1	6	5	-2	5
ugtP null kill	-3	-16	9	6	3	-10
PrP 5UTR inh	-21	-20	10	-26	-37	-17

19. CC(=O)c1ccc(NC(=O)CN2C(=O)COc3ccc(Cl)cc32)cc1
20. S=C(NC1CCCCC1)N(CCc1nc2ccccc2[nH]1)C1CCCC1
21. CN(C)c1ccc(C(CNC(=O)c2ccc(F)cc2)c2c[nH]c3ccccc23)cc1 (stereo not drawn)
22. Cc1ccc2[nH]c(=O)c(-c3nc4ccccn4c3NCc3ccco3)cc2c1
23. C=CCN1C(=O)C(Cc2ccccc2)SC1=Nc1ccc(C(=O)O)cc1 (stereo not drawn)
24. C=C1N2CCC(CC2)C1(O)c1ccccc1C (stereo not drawn)

Compound	19	20	21	22	23	24
RN4220 kill	2.8	-1.8	2.5	-0.5	4.2	-4.1
Bead autofluor	5775	4187	2553	16211*	10805	4433
BJeLR lethal	-3	-15	-4	4	-1	x
Mtb hypoxia inh	x	1	-1	-4	-2	x
Mtb hypoxia inh growth	x	9	-1	-5	-4	x
ugtP null kill	5	-14	1	0	-6	-2
PrP 5UTR inh	-20	-18	-18	-28	-15	-20

# Another view of part of the listing above.
# Under each structure: RN4220 kill	Bead autofluor	BJeLR lethal	Mtb hypoxia inh	Mtb hypoxia inh growth	ugtP null kill	PrP 5UTR inh
19. CC(=O)c1ccc(NC(=O)CN2C(=O)COc3ccc(Cl)cc32)cc1
 : 2.8	5775	-3	x	x	5	-20
20. S=C(NC1CCCCC1)N(CCc1nc2ccccc2[nH]1)C1CCCC1
 : -1.8	4187	-15	1	9	-14	-18

# The listing continues:
25. CCOc1ccc(NC(=O)CC2C(=O)N(c3ccc(OC)cc3)C(=O)N2CCc2cccs2)cc1 (stereo not drawn)
26. CCCCc1cc(=O)oc2cc(OC3CCCCC3=O)ccc12 (stereo not drawn)
27. O=C(/C=C/c1ccc(Br)cc1)c1ccco1
28. O=C(CCC(=O)N1CCCC1)Nc1ccc(Cl)c(Cl)c1
29. Cc1ccc([N+](=O)[O-])cc1N/C=C/C(=O)c1ccco1
30. CCn1c(SCC(=O)N(C)CC(=O)Nc2ccc(F)c(F)c2F)nnc1-c1ccco1

Compound	25	26	27	28	29	30
RN4220 kill	2.2	1.1	27	1.2	13	0.1
Bead autofluor	1931	4067	2833	4521	5879	5021
BJeLR lethal	-1	2	-9	5	4	7
Mtb hypoxia inh	8	-6	23	2	10	-1
Mtb hypoxia inh growth	0	9	13	0	15	7
ugtP null kill	0	-1	11	-4	0	5
PrP 5UTR inh	-24	-1	-26	2	-12	-8

# Part of the list above in order of number of heavy atoms, lowest first:
24. C=C1N2CCC(CC2)C1(O)c1ccccc1C (stereo not drawn)
29. Cc1ccc([N+](=O)[O-])cc1N/C=C/C(=O)c1ccco1
23. C=CCN1C(=O)C(Cc2ccccc2)SC1=Nc1ccc(C(=O)O)cc1 (stereo not drawn)
22. Cc1ccc2[nH]c(=O)c(-c3nc4ccccn4c3NCc3ccco3)cc2c1
30. CCn1c(SCC(=O)N(C)CC(=O)Nc2ccc(F)c(F)c2F)nnc1-c1ccco1
25. CCOc1ccc(NC(=O)CC2C(=O)N(c3ccc(OC)cc3)C(=O)N2CCc2cccs2)cc1 (stereo not drawn)

Compound	24	29	23	22	30	25
RN4220 kill	-4.1	13	4.2	-0.5	0.1	2.2
Bead autofluor	4433	5879	10805	16211*	5021	1931
BJeLR lethal	x	4	-1	4	7	-1
Mtb hypoxia inh	x	10	-2	-4	-1	8
Mtb hypoxia inh growth	x	15	-4	-5	7	0
ugtP null kill	-2	0	-6	0	5	0
PrP 5UTR inh	-20	-12	-15	-28	-8	-24

# Continuation:
31. Cc1nn(C(C)C(=O)NCCN2CCCCCC2)c(=O)c2nn(-c3ccccc3)c(C)c12 (stereo not drawn)
32. Cc1ccc(N(C(=O)CCC(=O)Nc2cc(C)on2)C(C(=O)NC2CCCC2)c2cccs2)cc1 (stereo not drawn)
33. CCCN1C(=O)SC(CC(=O)Nc2cccc3ccccc23)C1=O (stereo not drawn)
34. Cn1c(=O)[nH]c(=O)c2c1nc(N1CCCCC1)n2CCSc1ncccn1
35. COc1ccc(Cn2c(=S)[nH]c3cc(OC)c(OC)cc3c2=O)cc1
36. COc1ccc(CCC(=O)OCC(=O)Nc2ccccc2)cc1

Compound	31	32	33	34	35	36
RN4220 kill	0.0	2.6	2.7	2.3	-5.2	3.0
Bead autofluor	4909	3050	3147	6065	3250	3810
BJeLR lethal	-3	-2	x	-9	5	1
Mtb hypoxia inh	13	x	x	2	5	5
Mtb hypoxia inh growth	1	x	x	6	-2	4
ugtP null kill	4	7	-2	-5	4	11
PrP 5UTR inh	1	-12	-23	-8	14	-29

# Six compounds from above, showing only RN4220 kill and Mtb hypoxia inh growth:
entry	molecule	RN4220 kill	Mtb hypoxia inh growth
32	Cc1ccc(N(C(=O)CCC(=O)Nc2cc(C)on2)C(C(=O)NC2CCCC2)c2cccs2)cc1 (stereo not drawn)	2.6	x
31	Cc1nn(C(C)C(=O)NCCN2CCCCCC2)c(=O)c2nn(-c3ccccc3)c(C)c12 (stereo not drawn)	0.0	1
33	CCCN1C(=O)SC(CC(=O)Nc2cccc3ccccc23)C1=O (stereo not drawn)	2.7	x
34	Cn1c(=O)[nH]c(=O)c2c1nc(N1CCCCC1)n2CCSc1ncccn1	2.3	6
36	COc1ccc(CCC(=O)OCC(=O)Nc2ccccc2)cc1	3.0	4
35	COc1ccc(Cn2c(=S)[nH]c3cc(OC)c(OC)cc3c2=O)cc1	-5.2	-2

# (more compounds)
37. COc1cc2c(cc1OC)C(C)N(S(=O)(=O)c1cn(C)c(C)n1)CC2 (stereo not drawn)
38. CCOc1ccc(-c2n[nH]c(C)c2Oc2ccc(OC)cc2)c(O)c1
39. Cc1ccc(SCc2[nH]nc3c2C(c2ccco2)C(C#N)=C(N)O3)cc1 (stereo not drawn)
40. COC(=O)C1=C(C)N(C)C(C)=C(C(=O)OC)C1c1ccccn1
41. Cc1ncc2c(c1OC(=O)c1ccc([N+](=O)[O-])cc1)COC(C)(C)OC2
42. Cc1ccc(C)c(NC(=O)Cn2nc(C(F)(F)F)cc2C2CC2)c1

Compound	37	38	39	40	41	42
RN4220 kill	4.2	-7.1	16	1.7	5.3	3.5
Bead autofluor	6358	3066	7792	2681	2513	8350
BJeLR lethal	5	-6	6	9	-1	3
Mtb hypoxia inh	3	5	6	x	-6	2
Mtb hypoxia inh growth	0	10	4	x	-5	-5
ugtP null kill	7	11	-13	5	7	-1
PrP 5UTR inh	x	-20	-46	-25	-4	-7

43. COCCNC(=O)C(c1ccc(O)cc1)N(Cc1ccccc1)C(=O)CCC(=O)Nc1ccccn1 (stereo not drawn)
44. COc1ccc(C2(CNC(=O)c3ccc(OCC(C)C)cc3)CCOCC2)cc1
45. Cc1cc(C(=O)NCc2ccco2)sc1C
46. Cc1c(NC(=O)Nc2ccc(Cl)cc2)c(=O)n(-c2ccccc2)n1C
47. Cc1ccc2sc(N(CCN(C)C)C(=O)/C=C/c3cccs3)nc2c1C
48. CC1CCc2c(sc3nc(CN4CCOCC4)nc(Sc4ccccc4)c23)C1 (stereo not drawn)

Compound	43	44	45	46	47	48
RN4220 kill	4.3	-2.3	5.7	0.7	-9.4	2.1
Bead autofluor	2927	2450	3512	10751	4393	9147
BJeLR lethal	-6	3	x	6	-6	-5
Mtb hypoxia inh	8	-5	25	10	-12	4
Mtb hypoxia inh growth	0	-1	30	6	-9	14
ugtP null kill	13	11	7	6	-16	6
PrP 5UTR inh	-3	-18	-23	-21	-8	-15

49. Cc1cc(C)nc(SCC(=O)Nc2nonc2N)n1
50. CC(C)CC1(C)NC(=O)N(CC(=O)N2C(C)CCCC2C)C1=O (stereo not drawn)
51. COc1ccc(Nc2ncc(C(=O)O)c3ccccc23)cc1
52. O=C(CCCCCCN1C(=O)c2ccccc2C1=O)N1CCC(c2ccccc2)C1 (stereo not drawn)
53. Cc1cc(NC(=O)c2ccccc2C)ccc1NC(=O)c1ccccc1Cl
54. COc1ccc(CC(=O)OCC(=O)NCCc2ccccc2)cc1OC
55. O=C1C(=O)N(CCN2CCOCC2)C(c2cccnc2)/C1=C(/O)c1ccccc1 (stereo not drawn)
56. Cc1ccsc1C=NNC(=O)CC(=O)NCC(C)C

Compound	49	50	51	52	53	54	55	56
RN4220 kill	1.2	7.0	1.6	12	3.3	5.8	6.9	0.9
Bead autofluor	3930	2964	11131	4986	3819	7847	x	x
BJeLR lethal	10	x	-1	-5	-4	-20	-4	x
Mtb hypoxia inh	5	-4	5	-2	0	4	12	13
Mtb hypoxia inh growth	8	-7	8	6	-4	-2	3	1
ugtP null kill	3	14	5	-8	5	2	8	8
PrP 5UTR inh	-9	-3	-31	-12	-1	-16	x	x
